HNF4A DNA FP: change in binding of human HNF4 alpha to DNA; activity change, % at 10 µM; HNF4a-FITC DNA binding, fluorescence polarization, 1 h; 0.3% of 360,000 active; P41235; in the data active = activity change above about 30%, passing the limit was not always enough;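 also: controls were the assay level and a saturating level of protein; the project sought stronger binding though the title names inhibitors; some compounds called inactive have numbers as strong as hits; positive values seem to mean higher polarization but the record does not say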
Target sequence (P41235 whole entry, looked up): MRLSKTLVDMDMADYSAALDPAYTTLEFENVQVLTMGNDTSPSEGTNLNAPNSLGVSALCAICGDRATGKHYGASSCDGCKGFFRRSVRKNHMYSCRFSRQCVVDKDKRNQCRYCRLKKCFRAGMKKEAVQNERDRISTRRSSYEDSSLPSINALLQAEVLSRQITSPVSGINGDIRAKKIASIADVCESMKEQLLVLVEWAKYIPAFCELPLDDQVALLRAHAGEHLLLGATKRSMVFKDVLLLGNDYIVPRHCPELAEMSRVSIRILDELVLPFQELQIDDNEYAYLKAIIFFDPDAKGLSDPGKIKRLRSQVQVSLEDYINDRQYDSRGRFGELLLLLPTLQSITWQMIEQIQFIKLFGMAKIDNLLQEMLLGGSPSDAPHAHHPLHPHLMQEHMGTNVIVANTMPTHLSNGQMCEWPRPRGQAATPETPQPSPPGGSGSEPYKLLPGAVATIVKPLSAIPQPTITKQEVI
Ecoli growth: inhibitors of Escherichia coli growth; OD600 absorbance (no concentration beside the values); OD600, 23 h; active compounds read low; AID 1053175; 0.21% of 330,000 active;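 active = OD600 absorbance below the run mean of sample wells minus 3.6 SD, in any replicate, cut at about 0.56 in these data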;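 also: stock transfer was 300 nL into about 60 µL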
ALR H2O2 inh: blocks human ALR sulfhydryl oxidase activity. P55789. 3.8% of 290,000 active. inhibition, % (no concentration beside the values). purified ALR, DTT oxidation, H2O2 HRP-luminol luminescence. AID 485317;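 active = mean and each replicate at 75% or more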;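 also: stock transfer was 7.5 nL into about 7.5 µL; 0% = neutral wells and 100% = wells with inactivated enzyme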
Target sequence (P55789 whole entry, looked up): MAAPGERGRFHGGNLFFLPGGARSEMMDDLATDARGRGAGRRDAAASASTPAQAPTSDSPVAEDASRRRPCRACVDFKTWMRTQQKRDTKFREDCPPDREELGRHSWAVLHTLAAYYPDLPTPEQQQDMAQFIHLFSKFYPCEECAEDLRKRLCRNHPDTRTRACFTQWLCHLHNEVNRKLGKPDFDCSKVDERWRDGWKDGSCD
Ecoli rRNA inh: inhibits bacterial ribosomal RNA function over humanized ribosomes. E. coli WT GFP vs humanized-ribosome RFP mutants, fluorescence, 24 h; active compounds read low; DMSO median 0, no signal -100. GFP signal change (wild-type ribosome), % (test concentration not listed). 1.6% of 350,000 active;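 active = significant combined selectivity score with lowered wild-type GFP, culture density cut under 30%, mutant RFP and density less affected; inactive = any of these conditions unmet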; also: one replicate is shown; some compounds called inactive have numbers as strong as hits
FGF22 binding: FGF22 (human) thermal shift binding | calls only at 9.99 µM | recombinant FGF22 thermal shift, SYPRO orange fluorescence; percent of sucrose octasulfate shift, DMSO zero | Q9HCT0 | 1.5% of 340,000 active;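 active = melting point raised past a set limit in the mean and every replicate; three in four hits are not shown here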
Target sequence (Q9HCT0 whole entry, looked up): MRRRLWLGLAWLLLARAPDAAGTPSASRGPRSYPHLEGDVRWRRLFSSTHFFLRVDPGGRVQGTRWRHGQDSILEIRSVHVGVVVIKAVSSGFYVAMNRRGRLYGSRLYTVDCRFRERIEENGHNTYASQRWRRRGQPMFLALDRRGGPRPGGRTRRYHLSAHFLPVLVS
AF4-AF9 inh: inhibitors of human MLL-AF4/AF9 interaction; P42568; AlphaScreen, biotin-AF4 peptide binding to FLAG-AF9; inhibition, % at 10 µM; 0.47% of 350,000 active;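 active = every replicate reaching a set inhibition limit, whatever the replicate mean, cut at about 25% in these data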;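 also: 0% = plate neutral control median and 100% = total signal loss; the record names both 10 and 1 µM as test concentration; the first replicate is given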
Vif TR-FRET: HIV-1 Vif–A3G interaction blockers – biochemical, TR-FRET, GST-Vif 1-94, biotin-A3G peptide, dose response retest, primary screen (AID 1117319). TR-FRET GST-Vif / biotin-A3G peptide binding; higher % means a stronger effect; test concentration not given here; strong numbers were not always called active. one-dose inhibition, %; IC50 in µM for titrated hits. 0.57% of 260,000 active;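 active = above the screen mean plus three standard deviations and confirmed in dose response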;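 also: Vif residues 1-94 fused to GST binding biotinylated APOBEC3G peptide 110-148; 0% = full assay without inhibitor and 100% = GST in place of GST-Vif; retest series ran down from 100 µM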
Ecoli rRNA inh OD600: further read-out of Ecoli rRNA inh, marked with its call; OD600 change, %; measured here: OD600 growth;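 optical density of the mix in the first replicate; 0 = DMSO median and -100 = no signal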
Ecoli rRNA inh RFP: recorded beside Ecoli rRNA inh, whose call it bears; RFP signal change, %; measured here: RFP humanized mutant strains;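 first replicate; 0 = DMSO median and -100 = no signal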
* hit, by the source's call; i = inactive; x = not tested or not shown; & = joins results of further samples. Only part of the results is shown; rates above refer to the full screens.

SMILES | HNF4A DNA FP | Ecoli growth | ALR H2O2 inh | Ecoli rRNA inh | Ecoli rRNA inh OD600 | Ecoli rRNA inh RFP | FGF22 binding | AF4-AF9 inh | Vif TR-FRET
O=C(Nc1ccc(N2CCOCC2)cc1)C1CC(=O)N(c2ccccc2)C1 (centres undefined) | 2.4 | 0.73 | -8 | -18 | -12 | 28 | i | 0.0 | -1%
CC(=O)NC1c2ccccc2C(=O)N1Cc1ccccc1 (centres undefined) | 2.6 | 0.65 | 0 | 14 | 11 | 2.7 | i | -0.9 | -10%
COc1cc(C(CC(=O)N2CCCC2)c2c(OC)cc(OC)c3c(-c4ccccc4)cc(=O)oc23)cc(OC)c1OC (centres undefined) | -20 | 0.68 | -45 | -12 | -10 | -10 | i | 8.5 | 25%
COc1ccccc1Nc1cc2cc(Br)ccc2c(=O)[nH]1 | 3.7 | 0.72 | -19 | 5 | 7 | -6.1 | i | x | x
O=C(OC1CO[C@H]2O[C@@H]1[C@H](OC(=O)c1ccccc1)[C@H]2OC(=O)c1ccccc1)c1ccccc1 (some centres undefined) | -1.1 | 0.73 | 2 | x | x | x | i | 0.4 | x
C[C@H]1CCCCO[C@@H](CN(C)C(=O)CCCN(C)C)[C@@H](C)CN([C@@H](C)CO)C(=O)c2cc(NC(=O)Cc3ccccc3)ccc2O1 | x | x | x | 3 | 8 | -0.3 | i | -3.6 | x
CC(C)Nc1nc(Oc2cccc(Cl)c2Cl)cc(C(F)(F)F)n1 | -2.6 | 0.65 | 2 | x | x | x | x | x | -2%
C=CC[C@H]1C(C(=O)OCC)=CC[C@@H](c2ccccc2)N1S(=O)(=O)c1ccc(C)cc1 | -2.6 | x | x | 0 | 11 | -1.6 | i | -1.5 | x
C/C(=N\Nc1ccc2nncn2n1)c1ccc(Cl)s1 | -0.4 | x | 8 | 10 | 17 | -4.5 | x | 0.3 | 3%
Cc1ccc(C2CN=NC23CCc2ccccc2C3=O)cc1 (centres undefined) | 0.4 | 0.67 | -27 | x | x | x | x | x | 5%
CCCNC(=O)NS(=O)(=O)c1cnccc1Sc1ccc(Cl)c(Cl)c1 | 2.6 | 0.7 | 3 | x | x | x | x | x | 14%
O=c1c2ccccc2oc2ccccc12 | -4.9 | x | x | x | x | x | i | -2.4 | x
Cc1cc(C)cc(NS(=O)(=O)c2ccc3[nH]c(=O)[nH]c3c2)c1 | -1.5 | 0.69 | x | x | x | x | x | x | 4%
Cc1ccc(S(=O)(=O)N2CCN(C(=O)c3cc(S(=O)(=O)N4CCOCC4)ccc3Cl)CC2)c(C)c1 | 1.9 | 0.73 | x | -4 | -9 | 2.2 | i | 3.9 | x
C[C@@H]1CN([C@@H](C)CO)C(=O)c2cc(NS(=O)(=O)c3ccc(F)cc3)ccc2O[C@@H](C)CCCCO[C@H]1CN(C)S(=O)(=O)c1cccs1 | x | x | x | -4 | -4 | 1.2 | i | -5.1 | x
COc1ccccc1C(=O)N/C(=C/c1ccco1)C(=O)Nc1ccc(C(=O)O)cc1 | -9.8 | 0.67 | x | 31 | 9 | 1.1 | i | -2.1 | x
COc1ccc(CN(C)C[C@@H]2Oc3ccc(NC(=O)CCCCCC(=O)Nc4ccccc4N)cc3CC(=O)N([C@@H](C)CO)C[C@@H]2C)cc1 | x | x | x | 0 | 3 | 0.7 | i | 1.7 | x
Cc1nc(-c2ccccc2)sc1C1(C)CC(c2ccc(OC(F)(F)F)cc2)=NO1 (centres undefined) | 2.9 | 0.64 | x | 1 | -10 | -1.1 | i | 1.5 | -3%
COc1cc(OC)cc(C2=Cc3ccccc3C(CC(=O)c3ccco3)N2c2ccc(-c3ccc(C(N)=O)cc3)cc2)c1 (centres undefined) | -6.1 | x | x | -7 | -16 | -3.5 | i | -1.4 | x
Cc1ccc(-c2cnc3c(c2)C(=O)N([C@H](C)CO)C[C@@H](C)[C@@H](CN(C)S(C)(=O)=O)O3)cc1 | x | x | x | 5 | 2 | -2.2 | i | -4.9 | x
CC(C)COc1cccc(C(=O)NC(=S)Nc2cccc(NC(=O)c3ccccc3Cl)c2)c1 | -1.9 | 0.67 | -1 | x | x | x | x | x | x
Cc1noc(C)c1NC(=O)N(C)C[C@@H]1Oc2ccc(NC(=O)CCN3CCOCC3)cc2C(=O)N([C@H](C)CO)C[C@H]1C | x | x | x | 3 | 6 | 0.5 | i | -0.8 | x
O=C(NC(=S)Nc1ccc(CN2CCOCC2)cc1)c1ccc(-c2cccc(Cl)c2)o1 | 5.3 | 0.66 | -10 | -9 | 8 | 21 | i | 10 | 16%
COc1cc(C(N)=O)cc(Cl)c1OCc1ccccc1 | 2.3 | 0.66 | 13 | 16 | 10 | 3.8 | i | 10 | 0%
COc1ccccc1Oc1coc2c(CN3CCN(C)CC3)c(O)ccc2c1=O | -2.6 | 0.67 | 0 | x | x | x | x | x | -4%
CCOc1ccccc1N1CCN(C(=O)CCCN2C(=O)c3cccc4cccc(c34)C2=O)CC1 | 1.5 | 0.73 | -6 | -12 | -9 | 13 | i | 6.0 | x
O=C(c1cccc(S(=O)(=O)N2CCc3ccccc32)c1)N1CCN(c2ccccn2)CC1 | 2.8 | 0.71 | 1 | -42 | -59 | -2.2 | i | 1.3 | -8%
O=C(NCC(c1ccco1)N1CCCCC1)c1ccc(OCc2ccccc2)cc1 (centres undefined) | 2.0 | 0.7 | -3 | 12 | 0 | 1.4 | i | 0.4 | -2%
C[C@@H]1CN([C@@H](C)CO)C(=O)c2cccc(NS(=O)(=O)c3ccc(F)cc3)c2O[C@H]1CN(C)S(=O)(=O)c1ccc(Cl)cc1 | x | x | x | 2 | 0 | 0.0 | i | -1.4 | x
CCOC(=O)c1nn(-c2c(C)n(C)n(-c3ccccc3)c2=O)cc1O | -1.6 | 0.81 | 52 | x | x | x | x | x | 2%
COc1ccc(S(=O)(=O)N2CCN(c3cnccn3)CC2)cc1 | -1.1 | 0.63 | 0 | 6 | 2 | 4.2 | i | 5.3 | -3%
O=C(NCN1CCCCC1)c1cnccn1 | 0.2 | 0.72 | 2 | x | x | x | x | x | -2%
CCOc1ccccc1N1CCN(CC(O)COc2ccc3c(C)cc(=O)oc3c2)CC1 (centres undefined) | -0.4 | 0.69 | 20 | 2 | 0 | 5.8 | i | 7.8 | 30%&-3%
COc1ccc(NC(=O)c2nc(-n3nc(C)cc3C)ccc2Cl)cc1Cl | -3.2 | 0.7 | -4 | 5 | 18 | -0.5 | i | 4.3 | x
Cc1cc(C)n2nc(CCc3ccccc3)nc2n1 | 4.1 | 0.71 | x | x | x | x | x | x | 1%
Cc1ccccc1-c1csc(C(O)c2ccc(F)cc2)n1 (centres undefined) | 2.0 | x | x | -10 | -26 | -5.6 | i | -1.9 | x
COc1ccc(NC(=O)CSc2n[nH]c(N)n2)c([N+](=O)[O-])c1 | 1.7 | 0.69 | -7 | 8 | -3 | -4.3 | i | 1.0 | 8%
COC(=O)Cn1c(N)[n+](Cc2ccccc2)c2ccccc21 | -3.7 | 0.66 | -8 | 4 | 2 | -4.9 | i | -2.5 | x
C=C1CCC[C@]2(C)C[C@H]3OC(=O)C(CNC(C)CC)[C@H]3CC12 (some centres undefined) | -2.2 | 0.63 | 5 | 7 | 3 | 6.1 | i | -0.4 | -7%
CCN(c1ccccc1C)S(=O)(=O)c1nnc(NC(=O)c2ccco2)s1 | 3.1 | 0.7 | 20 | -13 | -34 | 2.6 | i | 0.3 | 19%
C/C=C/c1ccc([C@@H]2[C@@H](CO)N(C(C)=O)[C@@H]2CNC(=O)CC2CC2)cc1 | x | x | x | 1 | 6 | 0.7 | i | 6.3 | x
CC1CCN(C(=O)CNC(=O)CNS(=O)(=O)c2ccccc2)CC1 | 4.0 | 0.69 | -3 | 1 | 6 | -0.2 | i | -2.1 | x
CNc1nn(-c2cccc(Cl)c2)nc1N | 8.6 | 0.72 | 99* | x | x | x | x | x | 11%
COc1ccc(NC(=S)NCCc2ccc(S(N)(=O)=O)cc2)c(OC)c1 | 5.6 | 0.72 | -8 | 5 | -1 | 0.4 | i | 1.4 | -12%
COc1ccc(-c2csc(C(O)c3ccc(F)cc3)n2)cc1OC (centres undefined) | -4.2 | x | x | -8 | -9 | -4.1 | i | -1.6 | x

As entered above:
Result for COc1ccc(-c2csc(C(O)c3ccc(F)cc3)n2)cc1OC (centres undefined) under Ecoli rRNA inh: -8
Result for Cc1ccccc1-c1csc(C(O)c2ccc(F)cc2)n1 (centres undefined) under Ecoli rRNA inh OD600: -26
Result for CCOc1ccccc1N1CCN(CC(O)COc2ccc3c(C)cc(=O)oc3c2)CC1 (centres undefined) under Ecoli rRNA inh: 2

Additional records follow.
SMILES | HNF4A DNA FP | Ecoli growth | ALR H2O2 inh | Ecoli rRNA inh | Ecoli rRNA inh OD600 | Ecoli rRNA inh RFP | FGF22 binding | AF4-AF9 inh | Vif TR-FRET
COCCN1CCn2c(nc3cc(NC(=O)Cn4nc(C)c5ccccc5c4=O)ccc32)C1 | -4.5 | 0.64 | -12 | 7 | 5 | 1.0 | i | 1.5 | x
COc1ccc(C(=O)OCC(=O)NC2CCCC2)c(OC)c1 | 5.2 | 0.62 | x | 4 | 7 | 1.7 | i | 2.0 | 4%
CCC(=O)N1C[C@H]2[C@@H](c3ccccc31)[C@H](CO)N2Cc1ccc(F)cc1 | x | x | x | -1 | 2 | 0.7 | i | 1.6 | x
CCNc1nc2[nH]c(=O)c3c(c2s1)OC(N)=C(C#N)C3c1ccc(C)cc1 (centres undefined) | 2.4 | 0.76 | -7 | x | x | x | x | x | 18%
Cc1cccc(-n2c(CNC(=O)Cc3ccccc3)n[nH]c2=S)c1 | -0.4 | 0.71 | 12 | 18 | 21 | -4.1 | i | -6.1 | x
Nc1nc(COc2ccccc2)cs1 | -2.0 | 0.73 | -19 | -2 | 3 | -3.9 | i | 1.3 | -4%
COC(=O)c1cc(S(=O)(=O)N2CCCC2)c(Cl)cc1Cl | 0.9 | 0.69 | -9 | 3 | 2 | -0.9 | i | 2.3 | x
CN1CCN(C(=O)C2CCCN(S(=O)(=O)c3ccc(Br)cc3)C2)CC1 (centres undefined) | 0.8 | 0.68 | -23 | 6 | 11 | 1.7 | i | -2.2 | x
CCCN1[C@@H]2c3ccc(-c4ccccc4)c(=O)n3C[C@@H]2[C@@H](CO)[C@@H]1C(=O)OC | x | x | x | 1 | 1 | 0.7 | i | -0.8 | x
COc1cc(C)ccc1S(=O)(=O)NC(=O)C1(C)CCN1C(=O)Cc1ccccc1Cl (centres undefined) | 0.1 | x | x | 14 | 21 | 1.2 | i | 0.0 | x
O=C(c1ccccc1)c1ccc(OCCCCN2CCCCC2)cc1 | 0.1 | 0.68 | 3 | 8 | 6 | -6.9 | x | x | -1%
O=C(C/C(=N/O)c1ccccc1O)C(F)F | -0.1 | x | 7 | x | x | x | x | x | -1%
COc1cccc(CNc2ccc([N+](=O)[O-])cc2Cl)c1O | 5.3 | 0.62 | 3 | -50* | -33* | -2.0* | i | 9.6 | 3%
Cc1cc(C=C(C#N)C#N)c(C)n1-c1ccccc1 | -0.5 | 0.78 | -9 | x | x | x | x | x | 13%
O=C1CCC(C(=O)N2CCN(c3cnccn3)CC2)CN1CCc1cccc(F)c1 (centres undefined) | 0.0 | 0.72 | -4 | 3 | 9 | 1.7 | i | 1.6 | x

A draw from above in order of SMILES length, high to low.
SMILES | HNF4A DNA FP | Ecoli growth | ALR H2O2 inh | Ecoli rRNA inh | Ecoli rRNA inh OD600 | Ecoli rRNA inh RFP | FGF22 binding | AF4-AF9 inh | Vif TR-FRET
O=C(c1cccc(S(=O)(=O)N2CCc3ccccc32)c1)N1CCN(c2ccccn2)CC1 | 2.8 | 0.71 | 1 | -42 | -59 | -2.2 | i | 1.3 | -8%
COc1ccccc1Oc1coc2c(CN3CCN(C)CC3)c(O)ccc2c1=O | -2.6 | 0.67 | 0 | x | x | x | x | x | -4%
COc1ccc(S(=O)(=O)N2CCN(c3cnccn3)CC2)cc1 | -1.1 | 0.63 | 0 | 6 | 2 | 4.2 | i | 5.3 | -3%

From PubChem BioAssay
